StopGo RLuc = Primary qHTS Assay for Foot and Mouth Disease Virus Antivirals against NCGC Sytravon and CBC Compound Libraries: Renilla Luciferase Signal; HEK cells with a luciferase reporter of 2A StopGo recoding; Potency, µM (top dose mostly 57.5 µM), for the others: at the highest dose signal change, negative = less light; 120,000 compounds, 0.32% hits; active means well fitted falling curve with a large enough effect; inconclusive means small, poorly fitted or top-dose-only effect; inactive means no such curve, though single readings can be large or run the other way; further: nearly all actives have a fitted effect of over 55% in size; overnight with compound
StopGo FLuc = Primary qHTS Assay for Foot and Mouth Disease Virus Antivirals against NCGC Sytravon and CBC Compound Libraries: Firefly Luciferase Signal; 120,000 compounds, 0.23% hits; HEK cells with a luciferase reporter of 2A StopGo recoding; AID 1745856, 2022; Potency, µM (series often up to 57.5 µM), inactives show at the top dose signal change, negative = less light; active = well fitted falling curve with a large enough effect; inconclusive = small, poorly fitted or top-dose-only effect; inactive = no such curve, though single readings can be large or run the other way; further: nearly all actives have a fitted effect of over 60% in size; overnight with compound
Numbers without * were called inactive; ? = inconclusive; [ ] = remark or other dose. On the % scale 0 is the no-effect control and ±100 the full control effect; potency means the concentration at half of the fitted maximal effect. Only part of the results is shown. The share of hits here may be higher or lower than overall.

SMILES	StopGo RLuc	StopGo FLuc
Cc1ccc(CNC(=O)CCCCn2c(=O)c3ccccc3n(Cc3ccc(C)cc3)c2=O)cc1	7%	2%
O=C(O)C(c1c[nH]c2cc(Cl)ccc12)N1CCN(CCOc2ccc(Cl)cc2)CC1 (stereo not given)	-14%	-14%
COc1ccc(O)c(C(=O)OCc2nc(N)c3ccccc3n2)c1	31%[activator]	184%[activator]
CC(=O)c1c(C)[nH]c(C(=O)C(C)OC(=O)c2ccccc2)c1C (stereo not given)	?	?
c1ccc2c(c1)Cc1cc(-n3cccc3)ccc1-2	6%	202%[activator]
Cn1c(SCc2ccc(F)cc2)nnc1-c1cc2ccccc2o1	10%	0%
O=C(COc1ccc(F)cc1Cl)Nc1ncn[nH]1	-4%	0%
CC(C(=O)NCC1CCCCC1)n1cnc2c1c(=O)n(C)c(=O)n2C (stereo not given)	-18%	-11%
CCOc1ccc(C(C)C)cc1S(=O)(=O)Nc1cccc(-c2ccc(N3CCOCC3)nn2)c1	2%	61%[activator]
O=C(NCCCN1CCCCC1)c1ccc2c(c1)sc1nc(-c3ccc(F)cc3)cn12	-12%	56%[activator]
CCOC(=O)c1cc(NC(=O)c2ccc(C)cc2)c(=O)n2c1oc1ccccc12	-1%	16%
COc1ccc2cc(C(=O)N3CCNC(=O)C3)c(C)nc2c1	-11%	-7%
O=c1oc2ccccc2cc1-c1cn2cc(Cc3cc(Cl)ccc3Cl)sc2n1	2%	22%
O=C(CSc1nc(=O)n(Cc2ccncc2)c2c1CCC2)N1CCCCCC1	1%	-1%
CCCNc1c(NS(=O)(=O)c2ccc(Br)cc2)c(=O)oc2ccccc12	0%	15%
CCOC(=O)c1cc(NC(=O)/C=C/C(=O)O)cc(C(=O)OCC)c1	117%[activator]	84%[activator]
CCC(C)(NC(=O)CNC(=O)c1ccccc1)C(=O)NC1CCCC1 (stereo not given)	163%[activator]	17%
Cc1c(-c2nnc(SCC(=O)Nc3ccc(Cl)cc3)o2)nnn1-c1ccc(F)cc1	0%	74%[activator]
O=C(CCc1nnc2ccc(N3CCOCC3)nn12)NCC1CCN(Cc2ccc(F)cc2)CC1	2%	13%
CCn1nc(C(=O)N(C)CCOc2ccccc2C)c2ccccc2c1=O	17%	2%

Profiles from above. Order of values: StopGo RLuc, StopGo FLuc
COc1ccc2cc(C(=O)N3CCNC(=O)C3)c(C)nc2c1 as listed: -11%, -7%
CCCNc1c(NS(=O)(=O)c2ccc(Br)cc2)c(=O)oc2ccccc12 as listed: 0%, 15%
CCOC(=O)c1cc(NC(=O)/C=C/C(=O)O)cc(C(=O)OCC)c1 as listed: 117%[activator], 84%[activator]

The list continues:
SMILES	StopGo RLuc	StopGo FLuc
O=C(O)C1(c2ccc(Cl)cc2)CCCC1	3%	-5%
CSCCC(NC(=O)c1ccccc1)C(=O)Nc1ccc(Br)cc1 (stereo not given)	103%[activator]	11%
COc1ccc2[nH]c(=O)c(CN(C(=O)c3cccc(Cl)c3)c3cccc(C)c3)cc2c1	-7%	-4%
COc1ccc(Cl)cc1C(=O)N(C1CCCCC1)C1CCCCC1	-11%[1.06 µM]	?
CC(=O)N1CCC(N(CCCN2CCC(C)CC2)C(=O)Nc2cccc(C)c2C)CC1	-8%	-10%
Cc1ccc(S(=O)(=O)c2nc(S(C)(=O)=O)sc2NCc2ccccc2)cc1	266%[activator]	-3%
O=C(COc1ncnc2c(Cl)cc(Cl)cc12)NCc1ccccc1Cl	-11%	-2%
CC(C)(C)c1nc(Cn2c(=O)c(C#N)cn(C3CC3)c2=O)no1	1%	2%
Cc1c(C(=O)C(=O)N(Cc2ccccc2)C(C)C)c2ccccc2n1C	59%[activator]	-10%
Cc1cccc(NC(=O)c2oc3ccccc3c2NC(=O)c2cc(=O)c3cc(C)ccc3o2)c1	-5%	22%

Next part (3 carried over from the part before).
SMILES	StopGo RLuc	StopGo FLuc
CC(C)(C)c1nc(Cn2c(=O)c(C#N)cn(C3CC3)c2=O)no1	1%	2%
Cc1c(C(=O)C(=O)N(Cc2ccccc2)C(C)C)c2ccccc2n1C	59%[activator]	-10%
Cc1cccc(NC(=O)c2oc3ccccc3c2NC(=O)c2cc(=O)c3cc(C)ccc3o2)c1	-5%	22%
Cc1cccc(NS(=O)(=O)c2ccc(-n3cccn3)cc2)c1C	84%[activator]	?
CCOc1ccc(NC(=O)Cn2c(=O)cc(C)c3c(C)nn(-c4ccc(CC)cc4)c32)cc1	-9%	7%
Cc1ccc(NC(=O)CN2CCN(C(=O)CCNS(=O)(=O)c3ccc4ccccc4c3)CC2)cc1	18%	-4%
COCCn1cnnc1SCC(=O)c1c[nH]c2ccccc12	-3%	9%
COc1ccc(-c2noc(-c3cccnc3N3CCN(c4ccc(OC)cc4)CC3)n2)cc1	-6%	-3%
Cc1ccc(Nc2cc(C)nc3c(C)c(C)cc([N+](=O)[O-])c23)cc1	36%[activator]	21%
O=C(NCc1cccnc1)c1ccc(CN2C(=O)CCn3nccc32)cc1	-9%	-7%
CCCn1nc(C(=O)NCc2ccc3c(c2)OCO3)c2ccccc2c1=O	53%[activator]	0%
COc1ccc2c(c1)c(CC(=O)Nc1cc(C)c(OC)c(C)c1)c(C)n2C(=O)c1ccc(Cl)cc1	-5%	5%
O=C(CNC(=O)c1ccc(F)cc1)OCc1ncc(-c2ccccc2)o1	1%	181%[activator]
C=CCN(CC=C)Cc1c(C)[nH]c2ccccc2c1=O	0%	9%
CCOC(=O)C(C)Oc1ccc2c(=O)c(Oc3cc(C)ccc3C)coc2c1 (stereo not given)	-5%	18%
COC(C)C(=O)NCC(C)c1ccccc1 (stereo not given)	-12%	17%
NS(=O)(=O)c1ccc(N/N=C/c2ccccc2Br)c([N+](=O)[O-])c1	-3%	10%
Cc1ccc(OCCCCn2c(-c3ccc(Cl)cc3)nc3ccccc3c2=O)cc1	-8%	-9%
COc1ccc(C2C=C(c3ccc(C)cc3)Nc3c(C(=O)Nc4ccccc4)cnn32)cc1 (stereo not given)	-8%	-17%
Cc1ccc(NC(=O)CN2C(=O)COc3ccc(S(=O)(=O)N4CCOCC4)cc32)cc1N(C)C	-7%	-26%
COc1ccc(N2CC(NC(=O)COc3ccc4ccccc4c3)CC2=O)cc1 (stereo not given)	?	-12%
FC(F)(F)Sc1ccc(N=Cc2c3ccccc3cc3ccccc23)cc1	17%	141%[activator]
CCCC(C(=O)NC12CC3CC(CC(C3)C1)C2)c1ccccc1 (stereo not given)	8%	-10%
CC(C)NC(=O)CN(C)CC(O)COc1ccc(Cl)cc1Cl (stereo not given)	?	-32%
COc1ccc(C(=O)Nc2onc3c2CCCC3)cc1	5%	-57%
CNC(=O)CN1C(=O)CN(C(=O)NCc2ccccc2)c2ccccc21	0%	0%
Cc1ccc(NC(=O)/C=C/c2ccc(Cl)cc2)c(Br)c1	-2%	22%
CCC(=O)Nc1cc(-c2nc3cc(C)cc(C)c3o2)ccc1C	8%	57%[activator]
CCc1c(C)sc(NC(=O)/C=C/c2ccc(OC)cc2)c1C#N	2%	-4%
COc1ccc(-c2noc(CCC(=O)N(C)c3cc(Cl)ccc3OC)n2)cc1	10%	6%
CN(Cc1nc(-c2ccc(OC(F)(F)F)cc2)no1)S(=O)(=O)c1ccc(F)cc1	?	?
COc1cc(C(=O)NC2=Nc3ccccc3N=C(C)C2c2ccccc2)cc(OC)c1OC (stereo not given)	3%	14%
Cc1nc2c(cnn2C(C)C)cc1C(=O)N(C)Cc1ccccc1F	117%[activator]	79%[activator]
O=C1CSc2ccc(C(=O)NNC(=O)c3cc(-c4ccccc4)nc4ccccc34)cc2N1	5%	17%
COC(=O)c1cc(-c2cccnc2)nc2ccccc12	85%[activator]	126%[activator]
CCC(Sc1nc2ccccc2c2nc(-c3ccccc3)nn12)C(=O)Nc1cccc(OC)c1 (stereo not given)	-9%	-6%
O=C(/C=C/c1cccc(Cl)c1)NC(C1CC1)C1CC1	19%	23%
C[C@]12CCC(=O)C=C1CC[C@@H]1[C@H]3CC[C@](C)(O)[C@@]3(C)CC[C@@H]12	-13%[114 µM]	-7%[22.9 µM]
O=C(OCc1ccc(Cl)cc1)c1ccc(N2CCOCC2)nc1	11%	25%
CC(CN(C)C)C(C)(O)Cc1ccc(Cl)cc1 (stereo not given)	-15%	-19%
O=C(Nc1cccnc1-n1cccn1)c1cccc(NC(=O)c2cccs2)c1	23%	46%[activator]
O=C(NCc1ccc(Cl)cc1)C1CCCN(c2ncnc3nc[nH]c23)C1 (stereo not given)	-9%	-3%
COc1ccc(-c2nc3c(s2)CN(C(C(=O)O)c2c[nH]c4c(OC)cccc24)CC3)cc1OC (stereo not given)	1%	0%
O=C(Cn1ncc2c1-c1ccccc1OC2)N1CCN(c2ccccc2F)CC1	2%	-8%
CCc1ccc(NC(=O)N(Cc2ccc(C)cc2)Cc2cccn2-c2nnc(N3CCCC3=O)s2)cc1	5%	96%[activator]
Cc1cc(C)n(-c2nc3c(c(=O)n(CC(N)=O)c(=O)n3C)n2CCCc2ccccc2)n1	-9%	-5%
N#CCCn1cc(-c2csc(NC3CC3)n2)c2ccccc21	2%	8%
COCCNc1oc(-c2ccccc2Cl)nc1C#N	35%	109%[activator]
CCNC(=O)COC(=O)c1cc(-c2ccco2)nc2ccccc12	-12%	1%
O=C(CCSCc1cnn(-c2ccccc2)c1-n1cccc1)NCc1ccc(Cl)cc1	-15%	?
COc1ccccc1C(=O)NCCc1c[nH]c2ccccc12	62%[activator]	61%[activator]
O=C(CSc1nc2nc[nH]c2c(=O)[nH]1)c1ccc(F)cc1	-11%	7%
O=C(CCN=C1NS(=O)(=O)c2ccccc21)N(Cc1ccc(F)cc1)C1CC1	158%[activator]	1%
Going on with the list:
SMILES	StopGo RLuc	StopGo FLuc
COc1ccc(Cl)cc1S(=O)(=O)Nc1c(N2CCCC2)c2ccccc2oc1=O	93%[activator]	0%
CCCCCCCc1ccc(-c2nnc(-c3ccccc3Br)o2)cc1	0%	7%
COC(=O)c1ccccc1NC(=O)Cn1c(CCC(=O)O)ccc1-c1ccc(C)cc1	6%	1%
CCc1sc(C(=O)NCc2cccnc2)cc1C	9%	23%
CCNC(=S)NCCSc1ccc(Cl)cc1	0%	56%[activator]
COC(=O)C1=C(C)Nc2nc3ccccc3n2C1c1ccccc1 (stereo not given)	8%	0%
COc1ccc(C2CCCCCN2C(=O)c2csc(-c3ccsc3)n2)cc1 (stereo not given)	69%[activator]	8%
O=C(CCOc1ccccc1)N(Cc1cccnc1)c1nc2ccc(Cl)cc2s1	-7%	-17%
CCCC(=O)Nc1nn2c(CC(C)C)nnc2s1	-16%	-12%
Cc1c(NC(=O)C(C)OC(=O)c2ccc(F)cc2)c(=O)n(-c2ccccc2)n1C (stereo not given)	3%	12%
COc1cccc(/C=C/C(=O)OCc2ccc(C#N)cc2)c1OC	45%[activator]	0%
N#C/C(=C\c1ccccc1O)C(=O)Nc1cccc(C(F)(F)F)c1	13%	139%[activator]
CCCCNc1ccc(C(=O)OCCN(CC)CC)cc1	-14%	-15%
COc1ccc(S(=O)(=O)N(Cc2cc3ccccc3[nH]c2=O)C(C)C)cc1	?	?
C/C(=C/C(=O)C(F)(F)F)N1CCN(Cc2ccccc2)CC1	-10%	-2%
Cc1nn(CCC(=O)N2CCN(c3ccccc3)CC2)c(C)c1S(=O)(=O)N1CCCC1	4%	1%
CCCOc1ccc(C(=O)Nc2nc(-c3ccc(OC)cc3)c(C)s2)cc1OC	?	-29%
O=C(O)CCC(NC(=O)C12CC3CC(CC(C3)C1)C2)C(=O)O (stereo not given)	2%	-7%
CC1CCN(c2csc3ccc(F)cc3c2=O)CC1	73%[activator]	46%[activator]
Cc1ccccc1OCC(=O)Nc1ccccc1C(=O)OCc1cc(=O)n2c(C)csc2n1	11%	?

Part of the list above, with values under each structure:
Values run as follows: StopGo RLuc	StopGo FLuc
C/C(=C/C(=O)C(F)(F)F)N1CCN(Cc2ccccc2)CC1
  -10%	-2%
COc1ccc(S(=O)(=O)N(Cc2cc3ccccc3[nH]c2=O)C(C)C)cc1
  ?	?
Cc1ccccc1OCC(=O)Nc1ccccc1C(=O)OCc1cc(=O)n2c(C)csc2n1
  11%	?

New compounds follow.
SMILES	StopGo RLuc	StopGo FLuc
CCc1ccccc1N(C)S(=O)(=O)c1ccc2c(c1)C(C)(C)C(=O)N2C	26%	7%
CC(C)c1ccc(NC(=O)CC2NCCNC2=O)cc1 (stereo not given)	-8%	126%[activator]
Cc1oc2ncn(CC(C)C)c(=O)c2c1C(=O)Nc1cc(F)ccc1F	27%	39%
CCC(C)N(C(=S)Nc1cccc(Cl)c1)C1CCN(C(C)=O)CC1 (stereo not given)	92%[activator]	22%
NC(=O)C(Sc1ccc2ccccc2c1)c1ccccc1 (stereo not given)	-1%	10%

2 entries from above in a different format.
Molecule | StopGo RLuc | StopGo FLuc
COc1ccc(N2CC(NC(=O)COc3ccc4ccccc4c3)CC2=O)cc1 (stereo not given) | ? | -12%
FC(F)(F)Sc1ccc(N=Cc2c3ccccc3cc3ccccc23)cc1 | 17% | 141%[activator]

From PubChem BioAssay
